Screening results (PubChem BioAssay)
VDR inhibitor: blocks the human vitamin D receptor; VDR-SRC2-3 peptide fluorescence polarization, 2 h; AID 504847; P11473; 400,000 tested, 0.93% active; Potency, µM, without a hit: max response, negative = inhibition, hits mostly inhibitors; active = well fitted inhibition curve with a large enough effect; inconclusive = small, poorly fitted or top-dose-only effect, or another doubt; inactive = no such curve, though single readings can be large or run the other way; note: series mostly up to about 120 µM
Target sequence (P11473 whole entry, looked up): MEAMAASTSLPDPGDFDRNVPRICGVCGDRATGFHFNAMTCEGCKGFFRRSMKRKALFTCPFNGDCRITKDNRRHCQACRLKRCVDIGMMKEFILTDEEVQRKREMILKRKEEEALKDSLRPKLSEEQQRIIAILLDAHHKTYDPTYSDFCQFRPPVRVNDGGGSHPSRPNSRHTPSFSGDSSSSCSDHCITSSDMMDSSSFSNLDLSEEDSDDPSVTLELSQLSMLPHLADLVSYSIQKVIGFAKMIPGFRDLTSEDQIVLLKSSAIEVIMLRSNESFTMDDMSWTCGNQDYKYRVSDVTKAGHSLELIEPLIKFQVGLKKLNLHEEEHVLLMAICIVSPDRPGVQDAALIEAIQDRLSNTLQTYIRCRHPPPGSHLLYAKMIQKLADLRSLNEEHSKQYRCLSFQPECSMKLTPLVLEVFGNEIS
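VDR–SRC2-3 interaction, FP format. Cmpds 23 nl via pintool, brief spin, 2 h ambient incubation.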
* = called active by the depositor; ? = inconclusive; & = joins results of further samples. % is set by controls: 0 for no effect and ±100 for the full control effect; potency is the fitted concentration of half-maximal effect.

No.	Molecule	VDR inhibitor
1	CC(=O)N1CCCc2cc(S(=O)(=O)N(C)CCC#N)ccc21	-3.8%
2	CN(CC(=O)NNC(=O)Cc1ccccc1F)S(=O)(=O)c1ccc(Cl)cc1	-16.4%
3	COC(=O)c1c(-c2ccccc2)noc1-c1ccccc1	-15.5%
4	CC(C)CC(=O)N1CCN(Cc2ccccc2Cl)CC1	-2.9%
5	O=C(CSc1nncn1-c1cccnc1)Nc1cccc([N+](=O)[O-])c1	-0.2%
6	CCN(CC)CCNC(=O)c1ccc(NC(=O)c2c(C)nn(-c3ccc(F)cc3)c2Cl)cc1	2.0%
7	Cc1ccc(C23CC4CC(CC(C(=O)OCC(=O)NC5CCS(=O)(=O)C5)(C4)C2)C3)cc1 (centres undefined)	-15.7%
8	O=C(O)c1ccc(NC2OC[C@@H](O)[C@H](O)[C@H]2O)cc1 (some centres undefined)	-5.8%
9	CCOC(=O)c1ccc(NC(=S)NCc2ccc(S(N)(=O)=O)cc2)cc1	2.1%
10	Cc1c(C)c(C)c(S(=O)(=O)N2CCC3(CC2)OCCO3)c(C)c1C	13.6%
11	CC(C)n1nnc2c(=O)oc3ccccc3c21	-19.9%
12	O=C(C1=C(O)C(=O)N(CCc2ccccc2)C1c1cccs1)c1ccco1 (centres undefined)	-24.4%
13	Cn1c(=O)c2[nH]c(CSCc3ccccc3)nc2n(C)c1=O	-6.2%
14	Cc1ccnc(SCC(=O)c2ccc(Br)s2)n1	-27.9%
15	CCn1c(SCC(=O)c2ccc(NS(=O)(=O)c3ccccc3)cc2)nnc1-c1cccs1	23.6%
16	Cn1cc(SCC(=O)Nc2nccs2)c2ccccc21	-16.6%
17	C/C(=N\NC(=S)Nc1ccccc1C)C1Cc2ccccc2C(=O)O1 (centres undefined)	-4.0%
18	CCOC(=O)c1sc(NC(=O)c2cc(-c3ccc(C)cc3)nc3ccccc23)c(C#N)c1C	79.4µM*
19	CCCCCCc1cc2cc(C(=O)Nc3cccc(OC)c3)c(=O)oc2cc1O	-1.1%
20	CCC(C)NC(=O)c1ccc2nc(CCc3ccccc3)oc2c1 (centres undefined)	13.3%
21	Cc1nn(-c2ccccc2)c(N2CCCC2)c1C=O	10.3%
22	COc1ccc(/C=C2\SC(=S)N(CC(=O)OCC(=O)Nc3ccc(C)cc3Cl)C2=O)cc1	25.9%
23	O=C(Nc1nnc(-c2ccccc2)o1)c1cc(-c2cccs2)nc2ccccc12	-11.0%
24	COc1cccc(-c2cc(C(=O)NCCc3ccc(C)cc3)[nH]n2)c1	6.9%
25	CC(C)(C)c1ccc(S(=O)(=O)c2cn(CC(=O)Nc3ccccc3)c3ccccc3c2=O)cc1	?
26	Cc1ccsc1/C=C(\C#N)C(=O)NCCCN1CCOCC1	-9.5%
27	COCCn1nnnc1C(c1cc(OC)ccc1OC)N1CCc2ccccc2C1 (centres undefined)	5.0%
28	Cc1ccc(S(=O)(=O)NCCc2ccncc2)cc1[N+](=O)[O-]	-15.2%
29	Cc1ccccc1CN1C(=O)c2ccccc2S(=O)c2ccc(C(=O)NCc3ccccc3)cc21 (centres undefined)	5.3%
30	C=C(C)C(=O)Nc1cccc(C2=NOC3(C2)C[C@@H](C(N)=O)N(C(=O)CC(c2ccccc2)c2ccccc2)C3)c1 (some centres undefined)	13.6%

Ordered by count of non-hydrogen atoms (ascending): part of the list above
No.	Molecule	VDR inhibitor
4	CC(C)CC(=O)N1CCN(Cc2ccccc2Cl)CC1	-2.9%
20	CCC(C)NC(=O)c1ccc2nc(CCc3ccccc3)oc2c1 (centres undefined)	13.3%
23	O=C(Nc1nnc(-c2ccccc2)o1)c1cc(-c2cccs2)nc2ccccc12	-11.0%

Other structures follow:
No.	Molecule	VDR inhibitor
31	CC12CCC(C(=O)N3CCCCC3)([C@H](Br)C1=O)C2(C)C (some centres undefined)	7.3%
32	CN(CC(=O)N1CCN(c2ccc(F)cc2)CC1)S(=O)(=O)c1ccc2c(c1)c(=O)n(C)c(=O)n2C	1.3%
33	Cc1csc2nc(COC(=O)c3ccccc3NC(=O)c3ccc(C(C)(C)C)cc3)cc(=O)n12	8.5%
34	Cc1cccc(NC(=O)[C@H](Cc2c[nH]c3ccccc23)NC(=O)[C@@H]2Cc3ccccc3CN2)c1	-2.9%
35	Cc1c(C(=O)N(Cc2ccccc2)C2CCS(=O)(=O)C2)oc2ccccc12 (centres undefined)	2.8%
36	COC(=O)c1ccccc1C(=O)c1cccc2ccccc12	-10.6%
37	COc1ccc(Cc2nnc(NC(=O)CSc3ccccc3)s2)cc1OC	-20.3%
38	COCCNC(=O)c1ccc(CS(=O)(=O)c2ccc(C)cc2)o1	9.5%
39	CCOc1ccc(N(C(=O)CNC(=O)c2ccco2)C(C(=O)NCC2CCCO2)c2ccccc2)cc1 (centres undefined)	1.5%
40	CCCc1nc(-c2cc3ccccc3[nH]c2=O)no1	-7.4%
41	CN(C)c1ccc(C2C3C(=O)NC(=O)C3ON2c2ccc(Cl)cc2)cc1 (centres undefined)	6.5%
42	Cc1onc(-c2ccccc2)c1C(=O)NC(C)CCc1ccccc1 (centres undefined)	3.4%
43	O=C(NCCCc1ccccc1)c1cncc(Br)c1	1.9%
44	COc1ccc(-c2csc(C)n2)cc1OC	15.3%
45	COc1ccc(Cn2c(SCc3ccc(C(=O)NCc4cccs4)cc3)nc3cccnc32)cc1	2.3%
46	Cc1ccccc1NC(=O)NCC1CCN(c2ccc(S(=O)(=O)N3CCOCC3)cc2)CC1	-2.6%
47	O=C(Nc1ccc(F)cc1)C1CCCN(c2cnccn2)C1 (centres undefined)	2.6%
48	CCO[C@H]1OC(C(=O)O)=C[C@@H](c2ccccc2)[C@@H]1CCCO	-5.7%
49	CCC(c1nnc(SCC(=O)Nc2ccc(C(=O)N(C)C)cc2)n1Cc1ccccc1)N(C)C (centres undefined)	-12.3%
50	CCOc1ccc(-c2cc(NC(=O)c3c(F)cccc3F)c(C(=O)OC)s2)cc1	15.3%
51	Cc1ccc(-c2nc3ccccc3[nH]2)cc1N	3.0%
52	Cc1cccc(CSc2nc3c(cc2C#N)CCC3)c1	-2.2%
53	CCOC(=O)C1CCCN(C(=O)/C=C/c2cccc([N+](=O)[O-])c2)C1 (centres undefined)	-0.7%
54	COc1ccc(CCN(C)C(=O)C2CCN(Cc3cccc(OC)c3OC)CC2)cc1OC	-5.5%
55	Cc1cc(-n2nc(C)cc2C)n2ncc(-c3ccccc3)c2n1	2.8%
56	Cc1ccc(NC(=O)CCS(=O)(=O)c2ccc3nc(C)sc3c2)cc1	-9.6%&-0.2%
57	COc1cc2c(cc1OC)C(c1cccs1)N(C(=O)C(C)C)CC2 (centres undefined)	-2.8%
58	CCOc1cc(-c2c(C#N)c(N)nc3c2CCc2ccccc2-3)ccc1O	-15.6%
59	Cc1c(/C(O)=C2\C(=O)C(=O)N(CCN(C)C)C2c2ccco2)cnn1-c1ccccc1 (centres undefined)	-4.3%
60	N#Cc1c(NC(=O)C2CC(c3ccccc3O)=NO2)sc2c1CCC2 (centres undefined)	7.3%

New compounds follow:
No.	Molecule	VDR inhibitor
61	Cc1ccc(-n2nc(C)c3c(C)c(CCC(=O)NC(C)c4ccccc4)c(C)nc32)cc1 (centres undefined)	?
62	O=C(Nc1ccc2c(c1)oc1ccccc12)c1ccncc1	11.1%
63	O=C(c1cnccn1)N1CCC2(CCCN(Cc3ccncc3)C2)CC1	7.3%
64	Cc1ccc(NC(=O)C2COc3ccccc3O2)cc1C (centres undefined)	0.8%
65	O=C(O)c1cc(O)c2c(c1)[O][Bi][O]2	-1.3%
66	N=C1S/C(=C\c2cn[nH]c2-c2ccc(F)cc2)C(=O)N1c1ccccc1F	-20.1%
67	Cc1ccc(C)c(N2CCN(C(=O)C3CCN(c4nc(-c5ccc(C(C)C)cc5)no4)CC3)CC2)c1	-5.8%
68	CCN(CC)S(=O)(=O)c1ccc(OC)c(NC(=O)c2cn(CC)c3nc(C)ccc3c2=O)c1	-9.6%
69	COC(=O)Cc1ccc(NC(=O)c2ccccc2Cl)cc1	24.6%
70	CCCCOc1ccc(C(=O)NCCc2csc3nc(-c4ccccc4F)nn23)cc1	7.0%
71	CCOC(=O)c1cccc(NC(c2nnc(-c3ccccc3)o2)c2ccccc2F)c1 (centres undefined)	-0.2%
72	COCc1cc(=O)[nH]c(Sc2c(-c3ccccc3)c3ccc(Cl)cc3[nH]c2=O)n1	14.1%
73	Cc1ccc(CNC(=O)C2CCCN2S(=O)(=O)c2ccc(Cl)cc2)cc1 (centres undefined)	-3.9%
74	CCOc1ccc(Nc2c3c(nc4nncn24)CCC3)cc1	3.9%
75	Cc1cccnc1NC(=S)NCCc1ccccc1	-2.8%
76	COc1cc(/C=C2/C(=N)N3C(SC)=NSC3=NC2=O)ccc1OC(=O)c1ccco1	?
77	Cc1ccc(C2=NN(CCC(=O)NCCc3cccc(C)c3)C(=O)CC2)cc1	15.6%
78	Cc1ccc(C)c2sc(NC(=O)c3ccc(N4C(=O)CCC4=O)cc3)nc12	2.0%
79	COC(CNC(=O)CNC(=S)N(Cc1ccccc1)Cc1cccs1)OC	9.7%
80	Cc1cccc(N2C(=O)CS(=O)(=O)C23C(=O)N(Cc2c(F)cccc2Cl)c2ccccc23)c1 (centres undefined)	5.2%
81	Cc1nn(C)cc1/C=N/NC(=O)CSc1ccccn1	13.6%
82	CCc1nn(CC(=O)NCCc2ccc(OC)cc2OC)c(=O)c2cc3c(OC)cccc3n12	2.5%
83	CCN(CC)CCN1C(=O)C(=O)/C(=C(/O)c2ccc(S(=O)(=O)N3CCOCC3)cc2)C1c1ccc(C)cc1 (centres undefined)	23.8%
84	O=C(c1cccc([N+](=O)[O-])c1)c1ccc2c(c1)C(=O)NC2=O	-5.9%
85	CCC(=O)N1CCc2cc(CNS(=O)(=O)c3cc(OC)ccc3OC)ccc21	-2.5%
86	CC(C)Sc1nc2c(cnn2-c2ccccc2)c(=O)[nH]1	7.7%
87	O=C1CC2(CCCCC2)Oc2ccc(O)cc21	1.4%
88	O=C1CNC(=S)N1c1nc2ccccc2s1	-16.4%
89	O=C(COC(=O)c1cccc(S(=O)(=O)N2CCCCCC2)c1)Nc1ccccc1C(F)(F)F	-8.9%
90	Cc1ccc(OC(=O)c2ccc(C)c([N+](=O)[O-])c2)cn1	?

A portion from the list above, as a working copy:
No.	Molecule	VDR inhibitor
69	COC(=O)Cc1ccc(NC(=O)c2ccccc2Cl)cc1	24.6%
70	CCCCOc1ccc(C(=O)NCCc2csc3nc(-c4ccccc4F)nn23)cc1	7.0%
71	CCOC(=O)c1cccc(NC(c2nnc(-c3ccccc3)o2)c2ccccc2F)c1 (centres undefined)	-0.2%

New compounds follow
No.	Molecule	VDR inhibitor
91	COC(=O)C1=C(C)N(Cc2ccccc2)C(=NCc2ccccc2)N[C@H]1c1cccc(F)c1	-6.9%
92	COC(C[C@@H]1O[C@@H]1[C@H](O)[C@@H](C)OCc1ccccc1)OC	-27.9%
93	Cn1ccnc1C(=O)Cc1ccc([N+](=O)[O-])cc1	9.6%
94	CC1(C)CC(NC(=S)NCc2ccco2)CC(C)(C)N1	-10.4%
95	CC(C)(C)C(=O)NC(=S)Nc1cc(C(=O)O)ccc1Cl	-20.0%
96	CSc1c(CC(=O)Nc2ccccc2)n(C)c2ccccc12	8.9%
97	CN1CCN(/N=C/c2ccc(Cl)c(Cl)c2)CC1	8.3%
98	COc1cccc(CNC(=O)c2cc(-c3ccc(Cl)cc3)n[nH]2)c1	-1.7%
99	COc1cc(C(c2nnnn2C(C)(C)C)N2CCN(c3nc4ccccc4s3)CC2)ccc1O (centres undefined)	-19.9%
100	CCOc1cc(C#N)c(-n2nnc3c(sc4nc(C)cc(C)c43)c2=O)cc1OCC	-23.4%
101	CCOC(=O)c1ccccc1NC(=S)N1CCCCC1	1.4%
102	CC(C)[C@H](NC(=O)c1ccccc1)C(=O)OCC(=O)N1CC(=O)Nc2ccccc21	-0.7%
103	Cc1oc2ccc(O)c(CN3CCN(C)CC3)c2c1C(=O)Nc1cccc(Cl)c1C	5.9%
104	Cc1nc2cnc(Oc3ccccc3)nc2n(Cc2cccs2)c1=O	-16.4%
105	COc1cc(NC(=O)CCNS(=O)(=O)c2cc(Br)cnc2N)cc(OC)c1	12.5%
106	Cc1cccc(N2CC(C(=O)Nc3ccccc3N3CCOCC3)CC2=O)c1C (centres undefined)	6.8%
107	COc1ccc(CNC(=O)c2sc3nc4n(c(=O)c3c2C)CCCCC4)cc1	-8.7%
108	CCCCC(=O)N/N=C/c1cc([N+](=O)[O-])ccc1N1CCOCC1	-0.5%
109	CN(C)Cc1nc2c([nH]1)c(=O)n(C)c(=O)n2C	-12.7%
110	C=CCc1cccc(/C=N/c2nc3ccccc3n2CC)c1O	-2.4%
111	COc1ccc(-c2nn(-c3ccccc3)cc2C#N)cc1	-5.0%
112	CCc1nnc2c(Nc3cc(OC)c(Cl)cc3OC)nc3ccccc3n12	2.9%
113	CN(C)S(=O)(=O)N1CCN(C(=O)c2ccccc2Cl)CC1	6.0%
114	COc1cccc2sc(Nc3nnc(-c4cccs4)o3)nc12	10.5%
115	CC12CCC3C(CCC4CC(O)CCC43C)C1CC=C2c1ccccc1 (centres undefined)	13.6%
116	Cc1cc(C)n(-c2nncn2/N=C/c2ccccc2F)n1	-6.5%
117	CCOC(=O)c1ccc(NC(=O)Cn2cc(S(=O)(=O)Cc3ccccc3F)c3ccccc32)cc1	1.7%
118	O=C(CN1CCN(S(=O)(=O)c2ccc(F)cc2)CC1)NCc1cccs1	-3.1%
119	Cc1ccc2c(c1)cc(C)c1nnc(SCC(=O)NCc3ccco3)n12	-1.5%
120	CCCCN(CC)CCCNC(=O)c1nn(-c2ccc(OC)cc2)c(=O)c2c1c1ccccc1n2C	-8.2%

VDR inhibitor, entries above that show a hit.
No.	Molecule	VDR inhibitor
18	CCOC(=O)c1sc(NC(=O)c2cc(-c3ccc(C)cc3)nc3ccccc23)c(C#N)c1C	79.4µM*

Not all compounds are listed; rates above refer to the full screens.
